SARS PLpro yeast – qHTS of Yeast-based Assay for SARS-CoV PLP | S. cerevisiae expressing SARS-CoV PLpro, growth rescue; control for the full effect not named in the record | Potency, µM (titrated, usually from 32.9 µM), for inactives: top-dose activity, positive = growth rescue | actives 0.19% (n = 330,000) | AID 485353, 2010; active means well fitted rising curve with a large enough effect; inconclusive means small, poorly fitted or top-dose-only effect; inactive means no such curve, though single readings can be large or run the other way; further: 0% is about no effect; nearly all actives have a fitted effect of over 55% in size; growth read by luminescence after 48 h
RE007 growth inh – qHTS Assay for Inhibitors of the HIV-1 protein Vpr. actives 0.21% (n = 360,000). Potency, µM (series often up to 92.2 µM), for inactives: at the highest dose activity change, negative = less growth. S. pombe RE007 Vpr strain, BacTiter-Glo ATP luminescence, 24 h; control for the full effect not named in the record; active = well fitted falling curve with a large enough effect; inconclusive = small, poorly fitted or top-dose-only effect; inactive = no such curve, though single readings can be large or run the other way;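 further: on the % scale 0 is the no-effect control and ±100 the full control effect; nearly all actives have a fitted effect of over 50% in size; the assay follows cell death caused by Vpr and the record does not say whether a fall means rescue or toxicity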
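Fission yeast RE007 carrying one integrated HIV-1 vpr copy, seeded at OD 0.01 in PMG+AL medium with 23 nL pinned compound. Grown 24 h at 30 degrees; viability read by BacTiter-Glo luminescence after 5 min.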
2A StopGo – High Throughput Screening for Foot and Mouth Disease Virus Antivirals | human cells with a luciferase reporter of 2A StopGo recoding; control for the full effect not named in the record | Potency, µM (series often up to 57.9 µM), for inactives: at the highest dose signal change, negative = less light | actives 1.2% (n = 410,000) | AID 1159524, 2015; active = well fitted falling curve with a large enough effect; inconclusive = small, poorly fitted or top-dose-only effect; inactive = no such curve, though single readings can be large or run the other way; tested in HEK293T cells; further: on the % scale 0 is the no-effect control and ±100 the full control effect; nearly all actives have a fitted effect of over 45% in size; luciferase light after 4 h
Starred values were filed as active, the others as inactive; [ ] = dose if it differs, or a comment. Potency means the concentration at half of the fitted maximal effect. Not all compounds are listed; rates above refer to the full screens.

What do the screens show for `CC(OC(=O)c1ccc(S(=O)(=O)N2CCCCC2)cc1)C(=O)Nc1ccc(C(N)=O)cc1` (stereo not drawn)?
SARS PLpro yeast: 0%; RE007 growth inh: -6%; 2A StopGo: -16%

How did COc1ccc(NC(=S)N2CCc3ccccc3C2)cc1OC do in these assays?
SARS PLpro yeast: -1%; RE007 growth inh: 6%; 2A StopGo: 143%[activator]

How did CC(C)N1CCN(C(=O)c2ccc(NC(=O)c3ccc(Br)o3)cc2)CC1 do in these assays?
SARS PLpro yeast: -4%; RE007 growth inh: 4%; 2A StopGo: -7%

How did COc1cc(C#Cc2c(-c3cncn3C)n(C)c3ccc(-c4cc(OC)c(OC)c(OC)c4)cc23)cc(OC)c1 do in these assays?
SARS PLpro yeast: -4%; RE007 growth inh: 0%; 2A StopGo: -11%

What do the screens show for `CN(C)C(CNC(=O)c1ccc2c(c1)S(=O)(=O)c1ccccc1C2=O)c1ccco1` (stereo not drawn)?
SARS PLpro yeast: 3%; RE007 growth inh: -6%; 2A StopGo: 4%

What do the screens show for `Cc1cccc([C@@H]2[C@@H]3C(=O)N(Cc4ccccc4)C(=O)[C@@H]3[C@]3(Cc4ccccc4)C(=O)N(c4cccc(F)c4)C(=O)N23)c1`?
SARS PLpro yeast: -5%; RE007 growth inh: 0%; 2A StopGo: -14%

Results for CCOC(=O)/C=C1\SC(C)C(=O)N1CC(=O)N(CCC#N)c1ccccc1 (stereo not drawn) ?
SARS PLpro yeast: 11%; RE007 growth inh: -6%; 2A StopGo: -3%

What do the screens show for `O=C(COC(=O)c1ccc(F)c(S(=O)(=O)N2CCOCC2)c1)c1ccc(Cl)cc1`?
SARS PLpro yeast: 1%; RE007 growth inh: -9%; 2A StopGo: inconclusive

What do the screens show for `COc1cccc(NC(=O)CN(C)C(=O)CC(NC(=O)c2ccccc2Cl)c2ccccc2)c1` (stereo not drawn)?
SARS PLpro yeast: -3%; RE007 growth inh: 2%; 2A StopGo: 9%

Results for Cc1cccc(NC(=O)C(C)Sc2nc3ccccc3c(=O)n2CCCN2CCOCC2)c1 (stereo not drawn) ?
SARS PLpro yeast: -1%; RE007 growth inh: -3%; 2A StopGo: -18%

How did Fc1ccc(-c2n[nH]c(=S)c3ccccc23)cc1 do in these assays?
SARS PLpro yeast: 2%; RE007 growth inh: 23%; 2A StopGo: -5%

What do the screens show for `COc1cc(NC(=O)CN2C(=O)NC(CC(C)C)C2=O)cc(OC)c1OC` (stereo not drawn)?
SARS PLpro yeast: -3%; RE007 growth inh: 4%; 2A StopGo: 0%

How did COc1ccc2c(c1)C(=O)N1[C@H]3c4cc(OC)ccc4OC[C@@H]3[C@H](c3ccccc3)[C@]1(C)C(=O)N2 do in these assays?
SARS PLpro yeast: -2%; RE007 growth inh: 4%; 2A StopGo: 0%

What do the screens show for `Cc1ccc(SCC(=O)OCC(=O)NCCc2ccccc2)cc1`?
SARS PLpro yeast: -3%; RE007 growth inh: 2%; 2A StopGo: 3%

What do the screens show for `COc1ccc(OC)c(NC(=O)CSc2nc3nc(C)cc(C)n3n2)c1`?
SARS PLpro yeast: 5%; RE007 growth inh: 1%; 2A StopGo: -2%

How did Cc1ccc(S(=O)(=O)N(C)c2ccc(OC(=O)c3cc(=O)[nH]c4ccccc34)cc2)cc1 do in these assays?
SARS PLpro yeast: 2%; RE007 growth inh: -5%; 2A StopGo: -15%

Results for CCc1ccc(OC)c(S(=O)(=O)NCc2cccs2)c1 ?
SARS PLpro yeast: -2%; RE007 growth inh: 14%; 2A StopGo: 86%[activator]

How did CCN1C(=O)[C@@H]2[C@@H](c3ccc(SC4CCCCC4)cc3)N3CCC[C@@]3(C(=O)OC)[C@@H]2C1=O do in these assays?
SARS PLpro yeast: 1%; RE007 growth inh: 7%; 2A StopGo: -27%

Results for Cc1ccc(S(=O)(=O)NC(CC(C)C)C(=O)NCC(c2ccco2)N2CCCCC2)cc1 (stereo not drawn) ?
SARS PLpro yeast: -4%; RE007 growth inh: -13%; 2A StopGo: 10µM*

What do the screens show for `O=C(Nc1ccon1)C12CC3CC(C1)CC(n1cnc([N+](=O)[O-])n1)(C3)C2`?
SARS PLpro yeast: 0%; RE007 growth inh: -11%; 2A StopGo: -10%

What do the screens show for `CCC(CO)Oc1cc(NC(=O)c2cccc(F)c2)c2ncn(C(C)C)c2c1` (stereo not drawn)?
SARS PLpro yeast: 4%; RE007 growth inh: -16%; 2A StopGo: -18%

How did NC(=O)NCCCC(=O)O do in these assays?
SARS PLpro yeast: -10%; RE007 growth inh: 9%; 2A StopGo: inconclusive

How did CC(=O)Nc1ccc(S(=O)(=O)NCCC(=O)OCc2ccccc2F)cc1 do in these assays?
SARS PLpro yeast: 0%; RE007 growth inh: -1%; 2A StopGo: -5%

What do the screens show for `Cc1ccc(S(=O)(=O)N2CCC(C(=O)Nc3ccc(C(C)C)cc3)CC2)cc1`?
SARS PLpro yeast: -1%; RE007 growth inh: -10%; 2A StopGo: 0%

What do the screens show for `CCN(CC(=O)Nc1ccccc1OC)C(=O)c1ccc2[nH]c3c(c2c1)CC(C)CC3` (stereo not drawn)?
SARS PLpro yeast: 3%; RE007 growth inh: -4%; 2A StopGo: inconclusive

What do the screens show for `O=C(COC(=O)COc1ccc(Cl)cc1Br)NC1CCCCCC1`?
SARS PLpro yeast: 0%; RE007 growth inh: -2%; 2A StopGo: -16%

What do the screens show for `O=C(NC1CCCc2ccccc21)C12CC3CC(CC(O)(C3)C1)C2` (stereo not drawn)?
SARS PLpro yeast: -4%; RE007 growth inh: -6%; 2A StopGo: 21%

Results for C[C@H](CO)N1C[C@H](C)[C@H](CN(C)S(=O)(=O)c2ccccc2)Oc2c(NS(C)(=O)=O)cccc2C1=O ?
SARS PLpro yeast: 7%; RE007 growth inh: 2%; 2A StopGo: 22%

How did N#Cc1cc2c(=O)n3ccccc3nc2n(-c2ccccc2Cl)c1=O do in these assays?
SARS PLpro yeast: 0%; RE007 growth inh: -23%; 2A StopGo: -11%

What do the screens show for `CN(C(=O)CSc1nc2scc(-c3ccccc3)c2c(=O)[nH]1)c1ccccc1`?
SARS PLpro yeast: -5%; RE007 growth inh: 4%; 2A StopGo: -26%

How did CCC(CO)Oc1cc(NC(=O)c2ccc(C)cc2)c2ncn(C(C)C)c2c1 (stereo not drawn) do in these assays?
SARS PLpro yeast: -11%; RE007 growth inh: 7%; 2A StopGo: -10%

How did COc1ccccc1NCC(=O)N1CCN(S(=O)(=O)c2ccccc2)CC1 do in these assays?
SARS PLpro yeast: -2%; RE007 growth inh: 4%; 2A StopGo: -27%

How did CC1Nc2ncnc(N3CCc4ccccc4C3)c2N(Cc2ccc(Cl)cc2)C1=O (stereo not drawn) do in these assays?
SARS PLpro yeast: 2%; RE007 growth inh: -1%; 2A StopGo: -27%

What do the screens show for `CCCCN1CC(=O)N2[C@H]3c4cc(C)ccc4OC[C@@H]3[C@H](c3ccccc3)[C@]2(C)C1=O`?
SARS PLpro yeast: -1%; RE007 growth inh: 2%; 2A StopGo: -29%

Results for C#CCOCCOCCOCCNc1nc(N2CCOCC2)nc(N2CCN(C(=O)[C@H](CC(N)=O)n3cc(C(N)[C@@H](C)CC)nn3)CC2)n1 (stereo partly drawn) ?
SARS PLpro yeast: 2%; RE007 growth inh: 4%; 2A StopGo: -8%

How did Cc1ccc(-c2csc(Nc3ccccc3)[n+]2CCc2ccccc2)cc1 do in these assays?
SARS PLpro yeast: -4%; RE007 growth inh: -6%; 2A StopGo: inconclusive

Results for CC1(c2ccc3ccccc3c2)NC(=O)N(CC(=O)Nc2ncccc2O)C1=O (stereo not drawn) ?
SARS PLpro yeast: 1%; RE007 growth inh: -12%; 2A StopGo: 0%

How did COc1ccc(CC(=O)Nc2cccc(S(=O)(=O)N3CCOCC3)c2)cc1OC do in these assays?
SARS PLpro yeast: -5%; RE007 growth inh: -10%; 2A StopGo: inconclusive

How did COc1cccc(OCCNS(=O)(=O)c2ccccc2[N+](=O)[O-])c1 do in these assays?
SARS PLpro yeast: 2%; RE007 growth inh: 1%; 2A StopGo: 9%

What do the screens show for `COC(=O)C1=C(c2ccc(OCc3ccccc3)cc2)C[C@@H]2CC[C@H]1N2C(=O)NCc1ccc(OC)c(OC)c1`?
SARS PLpro yeast: 1%; RE007 growth inh: -11%; 2A StopGo: inconclusive

What do the screens show for `C#CC(=O)CCC1CCCN1C(=O)OC(C)(C)C` (stereo not drawn)?
SARS PLpro yeast: -8%; RE007 growth inh: -6%; 2A StopGo: inconclusive

Results for CCC[C@@H](CN1CCC[C@H]1CN1C(N)=NC[C@@H]1Cc1ccccc1)N1C[C@@H]([C@H](C)CC)N(CCc2ccc(Cl)c(Cl)c2)C1=N ?
SARS PLpro yeast: -9%; RE007 growth inh: 32%; 2A StopGo: -6%

How did Cc1cc(NS(=O)(=O)c2ccc(NC(=O)c3ccccc3F)cc2)no1 do in these assays?
SARS PLpro yeast: -6%; RE007 growth inh: 15%; 2A StopGo: -6%

What do the screens show for `CCCN(CC(=O)Nc1cc(Cl)ccc1Cl)C(=O)c1ccccn1`?
SARS PLpro yeast: 2%; RE007 growth inh: -10%; 2A StopGo: -10%

How did Cc1ccc(OCC(=O)OCC(=O)NC2CCCC2)cc1C do in these assays?
SARS PLpro yeast: 3%; RE007 growth inh: 3%; 2A StopGo: -13%

What do the screens show for `C=CC(=O)Nc1ccc(CN2C(=O)N(c3c(Cl)c(OC)cc(OC)c3Cl)Cc3cnc(NCCCCN(CC)CC)nc32)cc1`?
SARS PLpro yeast: -4%; RE007 growth inh: -10%; 2A StopGo: inconclusive

How did COc1cccc(C#Cc2c(C=O)n(C)c3ccccc23)c1 do in these assays?
SARS PLpro yeast: 10%; RE007 growth inh: -9%; 2A StopGo: -7%

Results for O=C(OCc1nnc(-c2cccs2)o1)C1=NN(c2ccccc2)C(=O)CC1 ?
SARS PLpro yeast: 4%; RE007 growth inh: 9%; 2A StopGo: 12%

3 compounds picked at random from those above, as already listed:
What do the screens show for `COC(=O)C1=C(c2ccc(OCc3ccccc3)cc2)C[C@@H]2CC[C@H]1N2C(=O)NCc1ccc(OC)c(OC)c1`?
SARS PLpro yeast: 1%; RE007 growth inh: -11%; 2A StopGo: inconclusive

How did COc1ccc(CC(=O)Nc2cccc(S(=O)(=O)N3CCOCC3)c2)cc1OC do in these assays?
SARS PLpro yeast: -5%; RE007 growth inh: -10%; 2A StopGo: inconclusive

How did COc1cccc(OCCNS(=O)(=O)c2ccccc2[N+](=O)[O-])c1 do in these assays?
SARS PLpro yeast: 2%; RE007 growth inh: 1%; 2A StopGo: 9%

Next compounds follow.
Results for C=CC[C@@H](CC(=O)NCCO)C(=O)NC[C@H](OC(=O)[C@@H](CC=C)Cc1ccc(F)cc1)c1ccccc1 ?
SARS PLpro yeast: 6%; RE007 growth inh: -10%; 2A StopGo: -25%

What do the screens show for `CSc1nc(-c2ccccc2)nc(C(C)C)n1`?
SARS PLpro yeast: -1%; RE007 growth inh: 1%; 2A StopGo: 3%

What do the screens show for `CN1CCN(S(=O)(=O)c2ccc(C#N)cc2)C(c2ccccc2)C1` (stereo not drawn)?
SARS PLpro yeast: 0%; RE007 growth inh: -1%; 2A StopGo: -11%

How did C/C(=N\OCC(=O)OCC(=O)Nc1cc(S(C)(=O)=O)ccc1Cl)c1ccc2c(c1)OCO2 do in these assays?
SARS PLpro yeast: -21%; RE007 growth inh: 3%; 2A StopGo: -6%

Results for CN(C)C1=NCCN1CC1CCCCC1 ?
SARS PLpro yeast: -7%; RE007 growth inh: -2%; 2A StopGo: 0%

Results for COc1ccc(CN(C)C(=O)COC(=O)c2cc([N+](=O)[O-])ccc2N2CCCC2)c(OC)c1OC ?
SARS PLpro yeast: 1%; RE007 growth inh: -20%; 2A StopGo: inconclusive

What do the screens show for `COc1ccc(NC(=O)C2CCCN(C(=O)c3ccc(Cl)cc3)C2)cc1Cl` (stereo not drawn)?
SARS PLpro yeast: 3%; RE007 growth inh: 1%; 2A StopGo: -11%

Results for CC1CC(C)CN(C(=O)COC(=O)c2c[nH]c3ccccc23)C1 (stereo not drawn) ?
SARS PLpro yeast: -1%; RE007 growth inh: -6%; 2A StopGo: -11%

How did CCN1C(=O)[C@H]2[C@@H](c3ccc(C)cc3)N3C(=O)N(c4cccc(Cl)c4)C(=O)[C@@]3(Cc3ccc(Cl)cc3)[C@H]2C1=O do in these assays?
SARS PLpro yeast: 3%; RE007 growth inh: 3%; 2A StopGo: -8%

How did Cc1ccc(C(=O)NCC(=O)O)o1 do in these assays?
SARS PLpro yeast: -1%; RE007 growth inh: -6%; 2A StopGo: -4%

How did O=C(C(=O)N1CCC2(CC1)OCCO2)c1c[nH]c2ccccc12 do in these assays?
SARS PLpro yeast: -1%; RE007 growth inh: 14%; 2A StopGo: -9%

Compound activity: PubChem, National Center for Advancing Translational Sciences (NCATS)
